Ba CapD inh – blocks the Bacillus anthracis CapD enzyme; purified CapD enzyme, fluorescence intensity read-out; active compounds read low; some hits fall short of the stated cut; z-score (concentration not given with the values); hit rate 0.23% among 140,000; AID 492967;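 active = z-score under -4 in either of two replicates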;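 note: stock transfer was 100 nL into about 40 µL; score is relative to mean and spread of the plate; one replicate is shown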
AID504770 – E. coli YBA685 growth inhibition, screen for V. cholerae RctB inhibitors; E. coli YBA685 rctB-dependent plasmid, OD600 growth, 3 h; active compounds read low; z-score (concentration not given with the values); hit rate 0.27% among 130,000; AID 504770;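 active = z-score under -2 on both plates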;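 note: wells of about 30 µL received 100 nL stock; score is relative to mean and SD of the test wells; the first replicate is given; strong numbers were not always called active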
* = called active by the depositor; . = not tested or not shown.

item	SMILES	Ba CapD inh	AID504770
1	Cc1ccc(S(=O)(=O)NC(=O)NC(C)(C)C)cc1	.	-0.2
2	O=C(Nc1ccc(N2CCOCC2)cc1)c1cnc2ccccc2n1	0.14	0.75
3	COc1ccc(CCN2C(=O)/C(=C/c3c(NCc4ccccc4)nc4ccccn4c3=O)SC2=S)cc1OC	0.49	.
4	COc1ccc2ccccc2c1C(O)c1cccs1 (stereo not given)	6.7	-0.55
5	Cc1c(C(=O)O)nnn1-c1cc(C(F)(F)F)cc(C(F)(F)F)c1	-0.24	.
6	CCOC(=O)c1ccc(-n2c(CC)nc3c(C)csc3c2=O)cc1	-0.83	-0.55
7	OC(CN1CCCCC1)CN1CCCCC1	.	-0.9
8	Cc1ccc(NCc2nnc(SCc3nc4ccccc4c(=O)[nH]3)n2Cc2ccco2)c(C)c1	.	-0.45
9	Cc1ccc(C(=O)CSc2ncn(-c3ccccc3)n2)cc1	.	-0.85
10	CC(=O)c1ccc(OCc2ccc(F)cc2)c([N+](=O)[O-])c1	-0.08	.
11	O=C(NNC(=O)C(Cc1ccccc1)NC(=O)OCCc1ccc(Cl)cc1)OCc1ccccc1 (stereo not given)	0.065	.
12	CC(/C=N/OCc1c(F)cccc1Cl)=N\Nc1c(Cl)cc(Cl)cc1Cl	-0.95	.
13	c1ccc2sc(SCc3cn4cccnc4n3)nc2c1	-0.32	-0.75
14	Cc1ccc(NCC(O)Cn2c3ccccc3c3ccccc32)cc1 (stereo not given)	0.29	1.3
15	CC(NCC1CCCO1)C(=O)N(C(C)C)C(C)C (stereo not given)	.	0
16	Cc1ccc(NC(=O)c2cc(C)no2)cc1	-0.69	-0.45

Compound profiles, from the list above. Order of values: Ba CapD inh, AID504770
Cc1ccc(NCC(O)Cn2c3ccccc3c3ccccc32)cc1 (stereo not given) in the list: 0.29, 1.3
CC(=O)c1ccc(OCc2ccc(F)cc2)c([N+](=O)[O-])c1 in the list: -0.08, .
Cc1ccc(NC(=O)c2cc(C)no2)cc1 in the list: -0.69, -0.45
O=C(NNC(=O)C(Cc1ccccc1)NC(=O)OCCc1ccc(Cl)cc1)OCc1ccccc1 (stereo not given) in the list: 0.065, .
CC(/C=N/OCc1c(F)cccc1Cl)=N\Nc1c(Cl)cc(Cl)cc1Cl in the list: -0.95, .

Remaining list, next part
item	SMILES	Ba CapD inh	AID504770
17	CC(=O)Nc1ccc(NC(=O)CCC(=O)c2ccccc2)cc1	-0.51	0.45
18	CC(=O)Nc1cc(C(=O)O)ccc1Sc1ccccc1	2.5	0.75
19	O=C(C1CCCCC1)N1CCC(n2nnc3ccccc32)CC1	.	-0.8
20	CC(c1ccccc1)C(CC(=O)Nc1nccs1)C(=O)Nc1nccs1 (stereo not given)	-0.23	0.05
21	Clc1ncnc2c1[nH]c1ccccc12	45	-1.1
22	CSc1ccc(Cn2cccc2C2=NC(C(C)C)CO2)cc1 (stereo not given)	0.18	1.2
23	CCn1c(O)c(N=NC(C)=O)c2ccccc21	.	-0.4
24	Cc1cc(-c2nnc(SCC(=O)c3ccccc3)n2C)no1	0.55	-0.7

The last 4 entries of the section before lead into the next.
item	SMILES	Ba CapD inh	AID504770
21	Clc1ncnc2c1[nH]c1ccccc12	45	-1.1
22	CSc1ccc(Cn2cccc2C2=NC(C(C)C)CO2)cc1 (stereo not given)	0.18	1.2
23	CCn1c(O)c(N=NC(C)=O)c2ccccc21	.	-0.4
24	Cc1cc(-c2nnc(SCC(=O)c3ccccc3)n2C)no1	0.55	-0.7
25	CC1(C)CC(=O)C2=C(C1)c1c(ccc3ncccc13)NC2c1cccc(O)c1 (stereo not given)	35	.
26	O=C(COc1ccccc1)Nc1cccc2c(NC(=O)COc3ccccc3)cccc12	0.17	.
27	CC(NC(=O)Cn1cccc1C(=O)c1ccccc1)C12CC3CC(CC(C3)C1)C2 (stereo not given)	-0.17	-0.95
28	O=C(O)C1CCCc2c1[nH]c1ccc(Br)cc21 (stereo not given)	-0.15	1.3
29	O=C(CCCn1c(=O)c2ccccc2n(Cc2ccc(Cl)cc2)c1=O)NC1CCCC1	0.79	-0.2
30	CCN1CCN(CC2CCCCC2)CC1	.	1.5
31	CC(c1ccccc1)n1c(C2CC2)nc2ccccc21 (stereo not given)	.	1.2
32	Oc1c(C=NCc2ccccc2)sc2ccccc12	3.4	0.6

Some values from the entries so far.
In AID504770, no. 30 is listed with 1.5
In AID504770, no. 27 is listed with -0.95
In Ba CapD inh, no. 32 is listed with 3.4
In AID504770, no. 29 is listed with -0.2
In AID504770, no. 28 is listed with 1.3

Remaining list, next part.
item	SMILES	Ba CapD inh	AID504770
33	CCCCCCc1ccc(C(=O)NC2CCN(Cc3c(OC)cc(OC)cc3OC)C2)cc1 (stereo not given)	-0.34	.
34	Cc1ccc(N2C(=O)CCC(C(=O)OCc3nnc(-c4ccccc4)o3)C2c2cccs2)cc1 (stereo not given)	.	-1.1
35	C/C(=N\NC(N)=O)c1csc2ccccc12	-0.26	-0.15
36	Cc1csc(NC2c3ccccc3C(=O)N2Cc2ccccc2)n1 (stereo not given)	0.27	-0.75
37	CC(C)C(=O)Nc1sccc1C#N	-0.64	-0.25
38	OCC(CO)(CO)NCc1ccc(Cl)cc1Cl	.	-1.1
39	Cc1c(C(=O)O)c(C(=O)O)c2n1CCS2	-0.23	-1.6
40	CC(=O)N1N=C(c2ccc(Br)cc2)CC1c1nc2ccccc2[nH]1 (stereo not given)	-0.32	.
41	Fc1ccc(N2N=C(c3ccc(Cl)cc3)CC2c2ccccc2)c(F)c1 (stereo not given)	48	.
42	C[C@@]1(OC(=O)/C=C\c2ccccc2)C[C@H](O)[C@@]2(O)C=CO[C@H](OC3OC(CO)C(O)C(O)C3O)C12 (stereo not given in full)	0.33	.
43	C(=Nc1ccccc1-n1cccc1)c1cnc(-c2ccccc2)[nH]1	74	-0.95
44	Cc1ccc2nc(COC(=O)Cc3ccsc3)cc(=O)n2c1	.	0
45	CCCn1c(SC(C)C(=O)O)nc2ccccc21 (stereo not given)	0.045	-0.9
46	Cc1onc(NC(=O)NC(=O)c2c(Cl)cccc2Cl)c1Br	-0.86	.
47	COc1cccc2c1OC1=C(C(=O)CC(C)(C)C1)C2CC(=O)c1ccc(F)cc1 (stereo not given)	-0.41	-0.35
48	CCCOc1cccc2c1CCN(C)C2=O	0.36	-0.95
49	CCN1C=CC2=C(C#N)C(N)C(C#N)(C#N)C(c3cccs3)C2C1 (stereo not given)	.	0.35
50	COc1cc(C2CC(=O)Nc3c2ccc2ccccc32)c(Br)c(OC)c1OC (stereo not given)	0.47	.
51	O=C(Nc1ccon1)c1cccc(Cl)c1	0.015	0.1
52	Cc1noc(C)c1COc1ccc(CC(=O)Nc2ccccc2N2CCOCC2)cc1	.	-0.25
53	O=C(Cn1c(SCC(=O)Nc2nccs2)nc2ccccc21)NCc1ccccc1	.	0.25
54	CC(C)(C)S(=O)(=O)/C(C#N)=C/N1CCC(n2cccc2)CC1	0.86	0.65
55	CNS(=O)(=O)c1cccc(C(=O)OCC(=O)c2cc(C)n(C)c2C)c1	.	-0.05
56	O=C(CN1CCCN(Cc2ccccc2)S1(=O)=O)N1CCCCCC1	0.11	-0.25
57	Cc1cc(C)c(S(=O)(=O)N(C)CC(=O)Nc2ccc3c(c2)OCO3)c(C)c1	.	0.2
58	C#CCn1c(=NC(=O)c2cccs2)sc2ccccc21	.	-1
59	Cc1c(C(=O)NN)oc2ccccc12	.	0.05
60	O=C(OCC1(c2ccc(Cl)cc2)CC1)N1CCN(c2nc(-c3ccccc3)ns2)CC1	-0.48	.
61	COc1cc2c(c(OC)c1)C(c1ccncc1)CC(=O)N2 (stereo not given)	-0.37	-0.55
62	O=C(O)CSc1cccc2cccnc12	41	-0.5
63	COc1ccc(N(C(=O)Nc2ccccc2N)C(C)C2C(C)(C)C2(C)C)cc1 (stereo not given)	0.15	-0.4
64	CSc1cccc(NC(=O)CN(Cc2ccccc2)S(C)(=O)=O)c1	0.11	0
65	Cc1ccc(Nc2nn3c(=O)c4ccccc4nc3s2)cc1	7.6	0.5
66	CN1C(=O)/C(=C2\SC(=S)N(c3ccc(C(=O)O)cc3)C2=O)c2ccccc21	-0.28	-0.95
67	CCc1ccc2[nH]c(=O)c(CN(Cc3ccco3)C(=O)c3ccccc3)cc2c1	.	1.8
68	CCCCCCSc1s[nH]c(=O)c1C#N	-0.025	0.1
69	CC(CC(=O)NC1CCCC1)c1ccccc1 (stereo not given)	.	0.25
70	COc1ccc(/C=C2/SC(=Nc3cccc(C)c3)NC2=O)cc1OC	-0.1	.
71	O=C1c2ccc(N3CCOCC3)c3c(N4CCOCC4)ccc(c23)C(=O)N1c1ccccc1	-0.3	.
72	O=S1(=O)CCC(NC(=S)SCc2ccccc2)C1 (stereo not given)	0.06	-3.8*
73	COC(=O)CSc1nc2c(cc1C#N)CCCC2	.	1.1
74	COCCOc1ncc(NC(=O)CSCC(=O)O)cc1C(F)(F)F	0.28	-0.6
75	CCc1ccc(NC2=NC(C(=O)NC3CCCCC3)CC(=O)N2)cc1 (stereo not given)	-0.29	-0.8
76	CC1Sc2ccc(Cl)cc2-c2nc(N)ncc21 (stereo not given)	-0.39	.
77	c1ccc(CSc2ncnc3c2cnn3-c2ccccc2)cc1	.	2.4
78	CCN(Cc1ccccc1)C(=O)CN1C(=O)c2ccccc2C1=O	0.02	-0.15
79	CC(C)=C1C(=O)Nc2ccc(S(=O)(=O)N3CCCCC3)cc21	1.6	-0.45
80	CCCC1C2c3ccccc3C(c3ccccc32)C1C(=O)Nc1ccccc1OC (stereo not given)	0.14	3
81	CN(C)CC(C)(C)CNC(=O)OCC#Cc1ccccc1	-0.035	.
82	CCCN(CCC)C1Sc2ccc(C(=O)OC)cc2NC1=O (stereo not given)	0.57	-0.8
83	COc1ccc(-c2c(C)oc3cc(O)cc(O)c3c2=O)cc1OC	-1.1	-0.3
84	S=C1NCN(CCCCc2ccccc2)CN1	0.51	.
85	COc1ccc(OCCSc2nc3ccccc3n2CCC(=O)O)cc1	-0.28	.
86	CCOc1ccc(Br)cc1/C=N/NC(=O)c1ccccc1O	-0.57	.
87	O=C(c1ccccc1)n1nc(-c2ccco2)nc1NCc1ccccc1	-0.38	-0.05
88	COC(=O)c1cc(OC)c(OC)c(OC)c1NC(=O)c1cccs1	-1	.

(further entries)
item	SMILES	Ba CapD inh	AID504770
89	CSc1nc2ccccc2n1CN1CCN(CC(=O)Nc2ccccc2Cl)CC1	.	0.7
90	CCC(=O)N1CCc2cc(S(=O)(=O)Nc3ccc(CC)cc3)ccc21	-0.73	-0.2
91	Cc1cc(NC(=O)COC(=O)/C=C/c2cccs2)no1	.	-1
92	C=CCNc1nc(NCC(=O)OCC)nc(NCC(=O)OCC)n1	-0.055	.
93	CCOC(=O)Cc1ccc(NC(=O)c2ccc(OC)c(OC)c2)cc1	-0.13	-1.5
94	Cc1ccc(N2NC3(CC(C)CC(C)(C)C3)NC2=S)cc1 (stereo not given)	0.44	.
95	Cc1noc(C)c1CSc1ccccc1C(=O)N1CCN(C(=O)c2ccco2)CC1	.	-0.05
96	COc1ccc(C2=NN(C(=O)CSc3nnc(CNC(=O)c4cccc(F)c4)n3C)C(c3cccc(OC)c3OC)C2)cc1 (stereo not given)	-0.28	.
97	COc1cc(C2NC(=O)NC(C)=C2C(=O)OCC2CCCO2)cc(Br)c1O (stereo not given)	0.66	.
98	Cc1nc2ncnn2c(C)c1CCC(=O)N(C)CCOc1ccc(Cl)cc1	.	-0.2
99	COc1ccc(NC(=O)c2cccnc2Sc2ccc(NC(C)=O)nc2)cc1	-0.52	.
100	O=C(CN1C(=O)c2ccccc2C1=O)OCc1cc(=O)n2ccsc2n1	3	-0.25
101	CC(c1ccncc1)N(CCN(C)C)C(=S)Nc1cc(F)cc(F)c1 (stereo not given)	0.46	-0.85
102	COc1ccc(-c2[nH]nc3c2C(c2cccc(OC)c2OC(=O)N2CCOCC2)C(C#N)=C(N)O3)cc1 (stereo not given)	0.06	.
103	C=CCN(CC=C)Cc1c(O)ccc2oc(C)c(C(=O)Nc3ccccc3C)c12	0.16	-0.6
104	COc1cccc(N2CCN(C(=O)CNC(=O)C34CC5CC(CC(C5)C3)C4)CC2)c1	.	-0.75
105	COc1ccc(-c2c(C)nn3c(N)c(-c4ccccc4)cnc23)cc1	62	-0.75
106	O=C(NCc1csc2ccccc12)OCc1c(F)cccc1F	-0.55	.
107	CCN(CC)S(=O)(=O)N1CCN(S(=O)(=O)N2CCOCC2)CC1	.	2
108	COc1cc2c(cc1OC)CN(CN1C(=O)CC3(CCCC3)C1=O)CC2	.	-0.6
109	CC(=O)Nc1ccc(OCC(O)CN2C(C)(C)CC(O)CC2(C)C)cc1 (stereo not given)	-0.24	-0.45
110	Cn1cc(C(=O)N2CCCC2)c(=O)c2cc(S(=O)(=O)N3CCCC3)ccc21	0.03	-0.5
111	CCOC(=O)C1=C(N)n2c(s/c(=C\c3cccnc3)c2=O)=C(C(=O)OCC)C1c1cccnc1 (stereo not given)	0.21	.
112	Clc1cccc(Cl)c1CSc1nccc(/C=C/c2cccs2)n1	1.2	.
113	Cn1c(=O)c2c(ncn2CC(=O)N(CC(=O)NC2CCCCC2)Cc2ccccc2Cl)n(C)c1=O	.	-0.95
114	CSc1nnc(CNC(=O)NCc2ccccc2)n1C	.	0
115	Cc1cc2[nH]c(=O)c(=O)[nH]c2cc1S(=O)(=O)N1CCN(CCOc2ccc(Cl)cc2)CC1	22	0.65
116	COC(=O)c1ccc2c(c1)NC(=O)CN2	106	0.6
117	CCCCCc1nc2ccccc2c(=O)n1N	.	-0.05
118	O=C(Cn1cnc(Cl)c1Cl)NNC(=O)OCCCCCc1ccccc1	0.045	.
119	O=C1CN(C(=O)/C=C/c2ccccc2)CCN1	-0.44	-0.4
120	N#CC1=C(N)SC(N)=C(C#N)C12C(=O)N(CCc1ccccc1)c1ccccc12	-0.56	-1.1
121	CN(C(=O)c1nc(-c2ccc(Cl)cc2)n2c1CCCCC2)C1CCCCC1	0.33	-0.15
122	C=CCNC(=S)Nc1cccc(-c2n[nH]c(=S)o2)c1	4.7	.
